AF4-AF9 inh: MLL-AF4/AF9 protein interaction inhibition; AlphaScreen, biotin-AF4 peptide binding to FLAG-AF9; P42568; 350,000 tested, 0.47% active; AID 651704; inhibition, % at 10 µM;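 active = every replicate reaching a set inhibition limit, whatever the replicate mean, cut at about 25% in these data; inconclusive = mean inhibition reaches that limit but some replicates miss it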;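 note: 0% = plate neutral control median and 100% = total signal loss; the record names both 10 and 1 µM as test concentration; the first replicate is given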
Ecoli growth: E. coli growth inhibition; Escherichia coli growth, OD600, 23 h; hits give low values; OD600 absorbance (test concentration not listed); 330,000 tested, 0.21% active;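 active = OD600 absorbance below the run mean of sample wells minus 3.6 SD, in any replicate, cut at about 0.56 in these data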;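 note: stock transfer was 300 nL into about 60 µL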
HNF4A DNA FP: change in binding of human HNF4 alpha to DNA; activity change, % at 10 µM; HNF4a-FITC DNA binding, fluorescence polarization, 1 h; AID 1224865; 360,000 tested, 0.3% active; P41235; in the data active = activity change above about 30%, passing the limit was not always enough;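 note: controls were the assay level and a saturating level of protein; the project sought stronger binding though the title names inhibitors; some compounds called inactive have numbers as strong as hits; positive values seem to mean higher polarization but the record does not say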
Target sequence (P41235 whole entry, looked up): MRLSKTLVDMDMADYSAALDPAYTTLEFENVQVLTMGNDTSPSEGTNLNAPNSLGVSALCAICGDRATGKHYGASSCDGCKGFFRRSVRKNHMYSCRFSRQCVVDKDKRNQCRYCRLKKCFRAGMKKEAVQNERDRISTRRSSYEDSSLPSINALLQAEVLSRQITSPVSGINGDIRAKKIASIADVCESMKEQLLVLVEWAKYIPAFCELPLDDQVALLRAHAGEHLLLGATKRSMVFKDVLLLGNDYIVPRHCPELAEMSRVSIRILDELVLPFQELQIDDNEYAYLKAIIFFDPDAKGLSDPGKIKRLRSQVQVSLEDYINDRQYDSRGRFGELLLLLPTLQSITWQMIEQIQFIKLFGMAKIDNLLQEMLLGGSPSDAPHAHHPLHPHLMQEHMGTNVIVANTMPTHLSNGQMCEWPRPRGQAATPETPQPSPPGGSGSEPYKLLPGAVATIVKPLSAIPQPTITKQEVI
FGF22 binding: shifts melting point of recombinant human FGF22. 340,000 tested, 1.5% active. calls only at 9.99 µM. recombinant FGF22 thermal shift, SYPRO orange fluorescence; percent of sucrose octasulfate shift, DMSO zero. Q9HCT0;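 active = melting point raised past a set limit in the mean and every replicate; inconclusive = no clear call; three in four hits are not shown here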
Target sequence (Q9HCT0 whole entry, looked up): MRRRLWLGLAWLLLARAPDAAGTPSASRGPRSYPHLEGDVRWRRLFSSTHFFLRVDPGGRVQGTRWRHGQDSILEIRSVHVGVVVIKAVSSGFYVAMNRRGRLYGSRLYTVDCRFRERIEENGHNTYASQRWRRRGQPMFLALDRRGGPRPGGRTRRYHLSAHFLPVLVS
rRNA inh HTS: inhibitors of bacterial rRNA selective over humanized ribosomes; GFP signal change (wild-type ribosome), % (concentration not given with the values); AID 720706; E. coli WT GFP vs humanized-ribosome RFP mutants, fluorescence, 24 h; hits give low values; DMSO median 0, no signal -100; 350,000 tested, 1.6% active;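 active = significant combined selectivity score with lowered wild-type GFP, culture density cut under 30%, mutant RFP and density less affected; inactive = any of these conditions unmet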; note: one replicate is shown; some compounds called inactive have numbers as strong as hits
ALR inh: inhibitors of human sulfhydryl oxidase ALR | purified ALR, DTT oxidation, H2O2 HRP-luminol luminescence | inhibition, % (concentration not given with the values) | 290,000 tested, 3.8% active | AID 485317;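 active = mean and each replicate at 75% or more; inconclusive = only one of the two met; inactive = neither met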;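 note: stock transfer was 7.5 nL into about 7.5 µL; 0% = neutral wells and 100% = wells with inactivated enzyme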
Target sequence (P55789 whole entry, looked up): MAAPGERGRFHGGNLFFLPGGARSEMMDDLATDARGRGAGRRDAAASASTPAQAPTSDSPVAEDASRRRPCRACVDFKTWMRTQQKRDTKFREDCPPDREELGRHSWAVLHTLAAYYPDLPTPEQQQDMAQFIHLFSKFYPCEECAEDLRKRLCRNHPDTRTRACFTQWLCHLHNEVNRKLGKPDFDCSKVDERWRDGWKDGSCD
Vif TR-FRET: inhibitors of Vif binding to APOBEC3G peptide, primary screen, biochemical, TR-FRET, GST-Vif 1-94, biotin-A3G peptide, dose response retest (AID 1117319). 260,000 tested, 0.57% active. inhibition, %; hits with a dose series show IC50 in µM. TR-FRET GST-Vif / biotin-A3G peptide binding; higher % means a stronger effect; test concentration not given here; strong numbers were not always called active;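 active = above the screen mean plus three standard deviations and confirmed in dose response; inconclusive = results disagree or hit not tested in dose response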;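 note: Vif residues 1-94 fused to GST binding biotinylated APOBEC3G peptide 110-148; 0% = full assay without inhibitor and 100% = GST in place of GST-Vif; retest series ran down from 100 µM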
rRNA inh HTS OD600: further read-out of rRNA inh HTS, marked with its call; OD600 change, %; measured here: OD600 growth;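 optical density of the mix in the first replicate; 0 = DMSO median and -100 = no signal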
rRNA inh HTS RFP: also measured in rRNA inh HTS; calls as there; RFP signal change, %; measured here: RFP humanized mutant strains;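 first replicate; 0 = DMSO median and -100 = no signal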
The depositor's hits bear a star; i = inactive; ? = inconclusive; · = no result given; & = joins results of further samples. Only part of the results is shown; the hit share may differ from the screen's.

SMILES	AF4-AF9 inh	Ecoli growth	HNF4A DNA FP	FGF22 binding	rRNA inh HTS	rRNA inh HTS OD600	rRNA inh HTS RFP	ALR inh	Vif TR-FRET
CC(C)N1CCN(C(=O)c2ccc([N+](=O)[O-])cc2)CC1	·	0.63	0.6	i	6	9	-2.0	-4	·
CCC(C)NC(=O)c1cc2c(=O)n3ccccc3nc2s1 (centres undefined)	1.5	0.66	2.0	i	2	-3	1.5	-3	3%
Cc1cc(C)n2nc3nc(N4CCCC4)nc(-c4ccccc4)c3c2n1	·	0.76	-1.9	·	·	·	·	-1	-8%
O=C1C(c2ccc(F)cc2)N(Cc2ccc3c(c2)OCO3)C(=O)CN1C1CCCC1 (centres undefined)	·	0.73	0.0	·	·	·	·	-8	6%
N#C[C@H]1[C@H](c2ccccc2-c2ccc(F)cc2)[C@@H](CO)N1C(=O)Cc1cccnc1	-4.1	·	·	i	-3	-7	-0.3	·	·
C[C@@H]1CCCCO[C@@H](CN(C)C(=O)Nc2ccc(C(F)(F)F)cc2)[C@@H](C)CN([C@H](C)CO)C(=O)c2cc(NC(=O)Nc3cccc4ccccc34)ccc2O1	-5.1	·	·	i	4	21	-1.7	·	·
N#Cc1ccc(COC(=O)c2ccc(N3CCCC3)c([N+](=O)[O-])c2)cc1	3.5	0.73	-0.6	i	-18	-16	-2.7	·	26%
Oc1c(Cl)cc(Cl)cc1CNn1cnnc1	-8.0	0.69	-1.3	·	0	0	1.9	·	6%
CCOc1cc(N2CCOCC2)c(OCC)cc1NC(=O)c1ccc(OC)c(S(=O)(=O)N2CCOCC2)c1	-7.0	0.68	-1.0	i	18	18	-0.9	-46	-4%
Cc1ccc(S(=O)(=O)Nc2nc(C)cc(-n3nc(C)cc3C)n2)cc1	3.4	0.7	-3.0	i	-1	4	-5.5	8	20%
O=C(NN=Cc1ccccc1)C(Oc1ccccc1)c1ccccc1 (centres undefined)	0.0	·	-1.2	i	-13	-24	2.0	·	·
CC(C)C(=O)Nc1nnc(SCC(=O)N2c3ccccc3CC2C)s1 (centres undefined)	·	0.69	-1.2	·	·	·	·	-7	10%
O=C(C[C@H]1CC[C@H]2[C@@H](COC[C@H](O)CN2Cc2cccc(F)c2)O1)NCC1CCCCC1	1.0	·	·	i	-7	-5	-1.3	·	·
CCC(CC)C(=O)c1c[nH]c(C(=O)NCc2ccccc2)c1	-1.6	0.68	-1.2	i	-1	5	0.7	-11	-5%
CCC(c1nnnn1Cc1ccccc1)N(Cc1cc2cc(OC)ccc2[nH]c1=O)CC1CCCO1 (centres undefined)	·	0.66	0.9	·	·	·	·	-38	9%&-6%
COc1ccccc1N(CC(=O)N/N=C/c1ccccc1C(=O)O)S(C)(=O)=O	11	·	1.0	i	8	3	-4.6	-8	·
COc1ccc(C)cc1-n1c(SCC(=O)Nc2cc(C)on2)nc2sc(C)c(C)c2c1=O	·	0.75	3.9	·	·	·	·	-3	63%
O=C(c1ccccc1Br)N1CCC(c2nc3ccccc3s2)CC1	0.3	0.65	-0.6	i	-36	-46	-4.4	-8	5%
Cc1ccc(CNC(=O)CCS(=O)(=O)c2cc(Br)cc3c2N(C(=O)C2CC2)CC3)o1	·	0.75	-1.5	·	·	·	·	35	9%&11%
CCOC(=O)c1ccc(NC(=O)Cn2nnc(-c3ccc(F)cc3)n2)cc1	·	0.68	1.5	·	·	·	·	-17	-3%

Structural class: the entries above with an aryl thioether with sulfur outside any ring (2)
SMILES	AF4-AF9 inh	Ecoli growth	HNF4A DNA FP	FGF22 binding	rRNA inh HTS	rRNA inh HTS OD600	rRNA inh HTS RFP	ALR inh	Vif TR-FRET
CC(C)C(=O)Nc1nnc(SCC(=O)N2c3ccccc3CC2C)s1 (centres undefined)	·	0.69	-1.2	·	·	·	·	-7	10%
COc1ccc(C)cc1-n1c(SCC(=O)Nc2cc(C)on2)nc2sc(C)c(C)c2c1=O	·	0.75	3.9	·	·	·	·	-3	63%

Next part.
SMILES	AF4-AF9 inh	Ecoli growth	HNF4A DNA FP	FGF22 binding	rRNA inh HTS	rRNA inh HTS OD600	rRNA inh HTS RFP	ALR inh	Vif TR-FRET
CN(C)CC(=O)N[C@H]1CC[C@H](CC(=O)NCc2ccccc2F)O[C@H]1CO	1.1	·	·	i	1	-3	-1.9	·	·
O=S(=O)(Nc1cccc(-c2ccc3nncn3n2)c1)c1cccs1	-0.5	0.69	-3.5	i	7	4	-1.5	-1	2%
CS(=O)(=O)N1[C@H](CO)[C@H](c2ccc(C#Cc3cccc(F)c3)cc2)[C@@H]1C#N	-1.3	·	·	i	-1	-18	5.1	·	·
CCn1c(C)nnc1SCC(=O)Nc1nccs1	-3.3	0.72	-3.6	i	4	3	-0.1	-7	·
Cc1ccc(S(=O)(=O)N[C@H]2CC[C@@H](CCNC(=O)C3CCCCC3)O[C@@H]2CO)cc1	-0.8	·	·	i	-2	3	-3.1	·	·
O=C(CN1CCN(S(=O)(=O)c2ccccc2)CC1)Nc1ccccc1Cl	-1.4	0.69	6.4	i	2	5	0.1	1	·
CS(=O)(=O)Nc1ccc2c(c1)[C@@H]1C[C@@H](CC(=O)N3CCc4ccccc4C3)O[C@H](CO)[C@@H]1O2	-0.2	·	·	i	2	3	-2.7	·	·
O=C(COc1ccccc1F)NCc1ccc(-n2cccc2)cc1	0.4	0.73	-1.9	i	2	1	3.9	-4	·
O=C(Nc1cnn(Cc2ccc(F)cc2)c1)c1noc2c1CCCC2	-4.0	0.62	3.7	i	-29	-21	15	-2	1%
CC(C)C(C(=O)NCc1ccco1)N(CC1CCCO1)C(=O)CNS(=O)(=O)c1ccc(F)cc1 (centres undefined)	-3.4	0.68	1.0	i	-4	4	0.0	1	-9%
O=C1N[C@H](Cc2ccccc2)COC(=O)[C@@H](Cc2ccc(F)cc2)CC/C=C/C[C@H]1CC(=O)N(CCO)Cc1ccccc1	1.8	·	-33	i	-3	-8	0.2	-4	·
COc1ccc(CN(C)C[C@H]2Oc3ccc(NC(=O)C4CC4)cc3C(=O)N([C@H](C)CO)C[C@@H]2C)cc1	-0.5	·	·	i	2	2	-0.9	·	·
COc1ccc(S(=O)(=O)Nc2ccc3c(c2)CC(=O)N([C@H](C)CO)C[C@H](C)[C@@H](CN(C)C(=O)Nc2cccc4ccccc24)O3)cc1	0.7	·	·	i	1	0	2.0	·	·
CCOc1ccccc1NC1=CC(=O)CC(c2ccccc2)C1 (centres undefined)	·	0.78	12	·	·	·	·	-3	22%
CN(C)c1ccc(/C=N/NC(=O)c2sccc2-n2cccc2)cc1	11	·	-0.3	i	4	4	2.0	99*	7%
Cc1ccc(NC2CCCN(C(=O)c3cc(C(C)C)[nH]n3)C2)cc1C (centres undefined)	1.2	0.72	-1.1	i	11	7	0.9	99*	·
COc1ccccc1C(C(=O)NC1CCCC1)N(C(=O)c1csnn1)C1CC1 (centres undefined)	0.3	0.66	-4.5	i	2	6	-1.5	·	·
O=C(C[C@H]1CC[C@H]2[C@@H](COC[C@H](O)CN2S(=O)(=O)c2ccccc2)O1)NCc1ccc2c(c1)OCO2	12	·	·	i	-1	-15	-2.5	·	·
O=C(Nc1ccc(C(F)(F)F)cc1)N[C@@H]1CC[C@@H](CC(=O)N2CCCCC2)O[C@H]1CO	-3.6	·	·	i	-2	7	-1.8	·	·
Cc1ccc(/C=N/OC(=O)c2nn(C)cc2Cl)cc1	1.4	·	-1.2	i	4	4	2.9	?	0%

Next entries.
SMILES	AF4-AF9 inh	Ecoli growth	HNF4A DNA FP	FGF22 binding	rRNA inh HTS	rRNA inh HTS OD600	rRNA inh HTS RFP	ALR inh	Vif TR-FRET
O=C(CN1C(=O)C2CCCCC2C1=O)Nc1ccc(OC(F)F)c(Cl)c1 (centres undefined)	-1.2	0.66	1.7	i	-11	-24	-0.7	·	-3%
COc1ccc(NC(=O)Nc2cccc3c2O[C@@H](CN(C)CC2CC2)[C@H](C)CN([C@@H](C)CO)C3=O)cc1	-2.0	·	·	i	-3	-8	-1.7	·	·
CC(c1ccccc1)N1C(=O)c2ccc(C(=O)NCc3cccnc3)cc2C1=O (centres undefined)	0.3	0.67	-1.7	i	-4	-17	0.5	2	·
Cc1cc(OCCN2CCCCC2)nc2ccccc12	·	0.71	·	·	·	·	·	-1	0%
CCCNC(=O)C[C@H]1CC[C@H]2[C@@H](COc3ccc(NC(=O)c4ccno4)cc3C(=O)N2C)O1	0.1	·	·	i	4	6	-0.9	·	·
COc1ccccc1CCN1CCCC(CN(C)C(=O)c2ccoc2)C1 (centres undefined)	1.6	0.7	-2.0	i	8	14	1.5	1	-10%
COc1ccccc1C(=O)N1CCN(c2cccc(C(F)(F)F)c2)CC1	·	0.68	2.8	·	·	·	·	1	28%
COc1ccc(NC(=O)C2CCCN2C(=O)OC(C)(C)C)cc1 (centres undefined)	-1.6	0.7	-0.6	i	17	20	-0.9	10	·
CCC(=O)Nc1ccc2c(c1)OC[C@H](C)N(C(=O)c1ccccn1)C[C@@H](C)[C@@H](OC)CN(C)C2=O	0.5	·	·	i	1	-2	-2.4	·	·
O=C(NCc1cccnc1)c1nc(-c2ccc(C(F)(F)F)cc2)no1	-3.4	0.71	-3.5	i	-26	-31	8.4	-4	-3%
COc1cccc(NC(=O)N2C[C@H](O)COC[C@H]3O[C@H](CC(=O)NC4CCCC4)CC[C@@H]32)c1	-0.5	·	·	i	-2	-2	-1.0	·	·
Cc1cccc(OCCC(=O)Nc2cc(S(=O)(=O)N3CCCCC3)ccc2N2CCOCC2)c1	-3.9	0.7	-3.1	i	10	9	-0.5	-3	-3%
C[C@@H]1CN([C@@H](C)CO)C(=O)c2cc(C#CC3CCCCC3)cnc2O[C@H]1CN(C)Cc1ccncc1	12	·	·	i	-10	-28	16	·	·

One compound at a time, as listed above. Values in the order: AF4-AF9 inh, Ecoli growth, HNF4A DNA FP, FGF22 binding, rRNA inh HTS, rRNA inh HTS OD600, rRNA inh HTS RFP, ALR inh, Vif TR-FRET
Record of CCCNC(=O)C[C@H]1CC[C@H]2[C@@H](COc3ccc(NC(=O)c4ccno4)cc3C(=O)N2C)O1 = 0.1, ·, ·, i, 4, 6, -0.9, ·, ·
Record of CCC(=O)Nc1ccc2c(c1)OC[C@H](C)N(C(=O)c1ccccn1)C[C@@H](C)[C@@H](OC)CN(C)C2=O = 0.5, ·, ·, i, 1, -2, -2.4, ·, ·
Record of CC(c1ccccc1)N1C(=O)c2ccc(C(=O)NCc3cccnc3)cc2C1=O (centres undefined) = 0.3, 0.67, -1.7, i, -4, -17, 0.5, 2, ·
Record of COc1ccccc1CCN1CCCC(CN(C)C(=O)c2ccoc2)C1 (centres undefined) = 1.6, 0.7, -2.0, i, 8, 14, 1.5, 1, -10%

Compound activity deposited in PubChem BioAssay by several laboratories.
